Bead autofluor: compound fluorescence in toxin protease inhibitor counterscreen; compound autofluorescence counterscreen, microsphere flow cytometry; hits give high values; fluorescence intensity (test concentration not listed); 360,000 tested, 3.1% active; AID 624483;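 active = at least 3 SD above the mean of all compounds, about 16000 in these data; inconclusive = too few beads counted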;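 note: 100 nL of 1 mM stock went into each well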
PrP UTR inh: inhibition of PrP 5' UTR reporter expression; cell-based PrP 5' UTR mRNA reporter, plate reader; inhibition, % (test concentration not listed); 340,000 tested, 0.35% active;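 active = every replicate at 50% or more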;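 note: 0 = median of the neutral control wells; tested in H4 reporter cells; numbers are from one replicate; inactives centre near -14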
Mtb hypoxia inh: PubChem AID 1159583 | M. tuberculosis hypoxia-regulated fluorescent reporter, fluorescence | fluorescence inhibition, % (test concentration not listed) | 300,000 tested, 0.1% active;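 active = 35 to 45% if threefold the growth effect, above 45% if 1.5-fold the growth effect; inactive = the rest, general growth blockers included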;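 note: wells of about 50 µL received 100 nL stock; 0% = vehicle wells and 100% = reference inhibitor wells; whole bacteria with a GFP reporter of the hypoxia response; strong numbers were not always called active; many hits fall short of the cut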
Sa ugtP lethal: growth inhibition of ugtP-null S. aureus, primary screen, RN4220 ugtP deletion, OD600. growth inhibition, % (test concentration not listed). AID 1259309, 2017. 330,000 tested, 0.54% active. 16 h; some inactives read as strong as hits;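 active = z-score under -3 and OD600 up to 0.15 on both plates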;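 note: plate controls were untreated wells for no effect and antibiotic for full effect; wells of about 80 µL received 100 nL stock; the first replicate is given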
BJeLR lethal: MLPCN primary cell-based screen for lethality selective to Ras in HRASV12 cells; inhibition, % (test concentration not listed); BJeLR (HRASV12) viability, CellTiter-Glo ATP luminescence, 48 h; reference of the scale not given here; 300,000 tested, 0.17% active;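 active = replicate mean above 50%; inconclusive = above 50% but judged a plate artefact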;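 note: 50 nL library stock added to about 25 µL; numbers are from one replicate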
RN4220 kill: growth inhibition of S. aureus RN4220, primary screen, OD600; 16 h; inhibition, % (no concentration beside the values); 330,000 tested, 0.33% active;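 active = z-score of -3 or lower and OD600 up to 0.18 on both plates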;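 note: plate controls were untreated cells for no effect and reference antibiotic for full effect; stock transfer was 100 nL into about 80 µL; one replicate is shown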
Mtb hypoxia inh growth: also measured in Mtb hypoxia inh; calls as there; growth inhibition, %; measured here: M. tuberculosis growth (absorbance);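 0% = vehicle and 100% = reference antibiotic; read after six days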
Numbers without * were called inactive; u = inconclusive; x = not tested or not shown; & = joins results of further samples.

Values run as follows: Mtb hypoxia inh	BJeLR lethal	PrP UTR inh	Sa ugtP lethal	RN4220 kill	Bead autofluor	Mtb hypoxia inh growth
> O=C(c1ccccc1Cl)N1CCCC(c2nc3c(nnn3Cc3ccccc3)c(=O)[nH]2)C1 (stereo unspecified)
    -5	-1	4	7	3.4	8211	3
> CCOC(=O)c1cc(C#N)c(N2CCN(c3ccc(OC)cc3)CC2)[nH]c1=O
    4	0	-4	7	22	1979	-1
> O=C(NCCC(=O)N1CCN(c2ccccc2O)CC1)c1ccc(Cl)cc1
    -3	-3	-14	2	3.2	x	12
> Cc1ccc2c(c1)-c1c(cnn1CC(=O)N(CCC#N)c1ccccc1)CO2
    x	6	-19	6	-1.4	6235	x
> O=C(NNC(=O)C12CC3CC(CC(O)(C3)C1)C2)c1csc(N2CCOCC2)n1
    17	-4	-14	15	0.3	6245	0
> Cc1nn(Cc2ccccc2Cl)c(C)c1NC(=O)c1noc(C(C)C)c1[N+](=O)[O-]
    -4	3	-13	3	3.3	4077	-1
> COc1ccc(C(N)CCc2ccc(C)o2)cc1 (stereo unspecified)
    x	6	-20	5	-0.4	4045	x
> Cc1onc(-c2c(Cl)cccc2Cl)c1C(=O)NN=C(N)COc1ccc(Cl)cc1
    5	x	x	-22	18	x	1
> COc1cc(NC(=S)Nc2cccc(Cl)c2Cl)c(OC)cc1Cl
    2	2	-7	-18	-21	3071	-1
> COc1cc(OC)cc(C(=O)NC(=S)Nc2ccc(N3CCCC3)cc2)c1
    1	8	-3	55	3.7	2373	9
> C#CCOCCOCCOCCNc1nc(N2CCN(C(=O)[C@H](Cc3cc4ccccc4[nH]3)n3cc(C(N)CC(C)C)nn3)CC2)nc(N2CCN(C(=O)[C@H](CCC(=O)O)n3cc(C(N)[C@H](C)CC)nn3)CC2)n1 (stereo partly specified)
    x	-1	-24	x	x	4131	x
> CCCN(CCC)C(=O)c1ccc2c(c1)N(Cc1ccccc1)C(=O)CS2=O (stereo unspecified)
    x	-40	-31	-7	-4.9	5773	x
> CCOC(=O)c1c(S(=O)(=O)N2CCCCCC2)c(C)n(C)c1C
    1	1	-4	-4	-0.8	5335	7
> O=C(Nc1ccc(Cl)cn1)C1CCCN1S(=O)(=O)c1cccc2ccccc12 (stereo unspecified)
    15	5	-8	12	-0.7	u	9
> O=C(Nc1ccnn1C1CCN(C/C=C/c2ccccc2)CC1)c1cccc(F)c1
    2	11	-5	1	2.6	5731	2
> CCc1nc2ccccc2c(C(=O)NCc2ccccc2)c1C
    9	1	-14	0	13	3160	16
> O=C(/C=C/c1ccc(Cl)cc1)NC(=S)Nc1ccc(CN2CCOCC2)cc1
    7	-2	-8	-2	-0.4	2100	10
> N#Cc1cccc(C(=O)Nc2ccc(S(=O)(=O)Nc3nccs3)cc2)c1
    13	x	-6	-1	-0.4	u	15
> S=c1[nH]nc(CCCc2n[nH]c(=S)o2)o1
    2	4	-30	15	4.4	5589	-2
> CCOc1ccccc1N1C(=O)c2ccc(C(=O)Nc3cccnc3)cc2C1=O
    4	-1	-35	2	3.0	6087	8
> COc1ccc(N(C)C(=O)CCC(=O)Nc2ccc3nc(N4CCOCC4)cc(C)c3c2)c(OC)c1
    -3	-14	-16	-18	-4.4	16645*	-6
> CCOC(=O)c1cccc(NC(=O)CSc2nnc(-c3ccncc3)n2CCCOC)c1
    8	7	-26	7	3.5	9558	14
> CC(=O)c1c(C)[nH]c(C(=O)OC2CCOC2=O)c1C (stereo unspecified)
    -7	-15	-16	2	0.6	9327	2
> Cc1ccc(NC(=O)c2ccccc2OCC(=O)Nc2cccc(Cl)c2C)nc1
    17	-4	x	-1	2.3	x	2
> COc1ccc(CC(NC(C)=O)C(=O)NC2CCN(C(=O)c3ccccc3F)CC2)cc1 (stereo unspecified)
    11	-2	-20	6	4.4	4159	4
> Cc1cccc(NC(=O)CSc2nnc(CNC(=O)c3ccco3)o2)c1
    2	-8	-5	5	1.4	5198	1
> COC(=O)c1ccc(CNC(=O)C2CCC(=O)N(CCN3CCOCC3)C2)cc1 (stereo unspecified)
    7	5	-5	6	0.3	6108	10
> O=C(NCC1CCCO1)c1ccc(Oc2ccc([N+](=O)[O-])cc2)cc1 (stereo unspecified)
    18	5	-12	6	3.1	4272	13
> O=C1CN(C(=S)NC(=O)c2ccc(-c3ccccc3)cc2)CCN1
    -4	-3	-34	1	5.7	5209	5
> CCn1c(C)c2c(C)nnc(C)c2c1C
    16	-5	-12	-3	-12	2956	16
> Cc1oc(-c2ccccc2F)nc1CS(=O)(=O)CC(=O)NCCCN1CC(C)CC(C)C1 (stereo unspecified)
    -1	2	-12	-2	-5.1	4359	-2
> C=CCn1c(C2CC2)n[nH]c1=S
    -10	1	-32	2	-1.3	3439	-9
> O=C(NCCC1=CCCCC1)c1cccc(S(=O)(=O)N2CCCCC2)c1
    8	5	-9	2	-1.1	u	8
> Cc1ccc(-c2[nH]ncc2CN2CCN(C(=O)c3cccs3)CC2)cc1C
    -3	-5	0	11	7.2	6155	-4
> O=C(O)CCN(CCC(=O)O)c1nnc(SCc2ccccc2)s1
    x	-20	-8	2	-0.4	4332	x
> CN(C)C(=O)c1cc(C(=O)c2ccc(C(F)(F)F)cc2F)c[nH]1
    1	1	-16	2	8.4	3599	4
> NC(=O)C1CCN(CC(=O)Nc2nccs2)CC1
    12	-5	-19	3	3.7	3996	7
> Cc1ccc(S(=O)(=O)NC(=NCC(=O)O)c2ccccc2)cc1
    7	-8	2	2	-4.2	2385	1
> C=CCSc1ncccc1C(=O)NCCc1ccccc1
    3	2	-15	2	3.3	3101	8
> Cc1c(NC(C)c2ccccc2O)c(=O)n(-c2ccccc2)n1C (stereo unspecified)
    4	-6	-19	8	1.7	24008*	4
> CN1CCN(CC(C)(C)NS(=O)(=O)c2ccc(Cl)cc2)CC1
    10	-4	-18	-2	3.6	5721	9
> CC(C)CCn1c(SCC(N)=O)nc2c1c(=O)n(C)c(=O)n2C
    9	-7	3	2	4.5	6083	7
> O=C(NC1CCN(C(=S)Nc2ccc(F)cc2)CC1)C1CCCCC1
    -7	1	-4	-1	-0.3	5798	3
> COc1cc(N=Cc2c(O)c3ccccc3oc2=O)c(OC)cc1Cl
    x	5	-20	-3	0.8	7461	x
> Cc1ccccc1C1=Nn2c(nnc2-c2ccco2)SC1
    10	-6	1	-1	5.0	3750	1
> CC(=O)c1csc(-c2ccccc2)n1
    6	-4	-2	-1	-2.8	3119	-3
> O=C(CCC(=O)Nc1ccccc1)N/N=C/c1ccncc1
    x	-1	1	x	x	3755	x
> O=C(NCc1ccccn1)c1ccc(Cl)c(S(=O)(=O)N2CCCCCC2)c1
    2	6	6	6	2.3	4926	0
> COc1ccc(S(=O)(=O)N2CCCCC2C(=O)O)cc1 (stereo unspecified)
    -1	-11	-20	0	6.8	7683	4
> CCN(CC)S(=O)(=O)c1cc(NC(=O)C(CC(C)C)NC(N)=O)ccc1C (stereo unspecified)
    12	-9	-9	6	0.7	4307	8
> Cn1c(N)c(C(=O)COC(=O)Cn2cc(C(F)(F)F)ccc2=O)c(=O)n(C)c1=O
    3	-5	-13	-3	-14	3010	4
> COc1ccc(CC(=O)Nc2cc(S(=O)(=O)N3CCCC3)ccc2Cl)c(OC)c1
    9	x	-10	3	3.3	3978	3
> CC1(C)Cc2nc3n[nH]c(N)c3cc2CO1
    4	6	-77	5	4.7	24639*	-2
> CC(OC(=O)c1cccs1)C(=O)NCC1CCCO1 (stereo unspecified)
    10	-1	-34	4	3.0	8649	12
> CCc1ccc(C(=O)NC(CC(C)C)C(=O)O)cc1 (stereo unspecified)
    2	3	x	2	2.8	9169	6
> CC(C)(C)NC(=O)CN(C(=O)C1CSC(=O)C1)c1ccccc1F (stereo unspecified)
    10	-9	-28	7	4.6	4460	10
> CS(=O)(=O)N1CCC(NC(=O)Nc2ccc(OC(F)(F)F)cc2)CC1
    11	x	-28	-3	-9.9	4416	5
> O=C(COC(=O)C1=COCCO1)Nc1ccc(F)cc1
    -2	1	-23	13	5.0	x	0
> COc1ccc(-c2ccc3c(c2)S(=O)(=O)c2cccc(C(=O)NCCOc4ccccc4Cl)c2C3=O)cc1OC
    7	x	-13	10	21	2898	15
> O=C(c1ccccc1)C(Nc1ccccn1)c1ccccc1 (stereo unspecified)
    12	-4	-25	-3	7.0	3174	-3

Other compounds follow:
Values run as follows: Mtb hypoxia inh	BJeLR lethal	PrP UTR inh	Sa ugtP lethal	RN4220 kill	Bead autofluor	Mtb hypoxia inh growth
> c1ccc(CN2CCCC3(CCCN(Cc4nc(CC5CC5)no4)C3)C2)cc1 (stereo unspecified)
    4	3	4	1	2.8	3877	3
> Cc1oc2c(CN3CCOCC3)c(O)ccc2c(=O)c1-c1ccc(Cl)cc1
    16	-8	1	-3	0.9	3785	6
> COc1ccc(-c2cc3nc4ccccc4n3c(N)c2C#N)cc1
    5	-1	-120	10	3.9	5577	0
> O=C(NCCc1c[nH]c2ccccc12)c1cccc(Br)c1
    2	4	-23	-1	0.9	3701	12
> Cc1ccc(NC(=O)C2CC(=O)N(c3ccc4c5c(cccc35)CC4)C2)cc1 (stereo unspecified)
    11	-3	-2	-7	-6.2	4683	16
> CC(C)(C)OC(=O)CC1CC=CCC(CC(=O)NC(CO)Cc2ccccc2)C(=O)N2CCCC2COC1=O (stereo unspecified)
    -6&1&-1&-3&1&6&7&9&7	x	x	1&0&1&-12&-6&2&3&-5&4	-1.5&2.5&2.4&-2.2&4.3&3.3&2.4&5.0&2.9	x	8&9&14&-4&2&4&2&-3&10
> Cc1ccc(CNCc2ccc3c(c2)OCO3)c(C)c1
    8	-10	-20	4	3.1	3097	0
> COc1ccc(C=C2N=C(SC)NC2=O)cc1
    9	x	x	-6	2.0	x	8
> Cc1ccc(NC(=O)/C(=C/c2cccs2)NC(=O)c2ccco2)c(C)c1
    -8	6	-12	-3	2.6	2573	-5
> O=C(Oc1ccccc1)c1ccc(COC(=O)c2cnccn2)cc1
    x	2	-7	-2	11	3270	x
> O=C1CN(CC(=O)Nc2ccc(Cl)cc2)CCN1
    x	0	-7	6	0.8	3494	x
> COC(=O)c1ccc(CSc2nnc3ccccn23)o1
    10	-1	-10	-4	0.9	8632	7
> CCOC(=O)C1=C(C)NC(C)=C(C(=O)OCC)C1c1ccc([N+](=O)[O-])s1
    -12	-6	-12	-19	0.9	3585&4008	4
> COc1ccc(C2OC(=O)CC2C(=O)NC2CCCC(C)C2C)cc1OC (stereo unspecified)
    7	1	-8	5	3.8	9223	1
> O=C(N/N=C/c1ccco1)c1ccc(OCc2ccccc2)cc1
    x	3	-6	x	x	3959	x
> CCOC(=O)c1sc(NC(=O)COc2ccc3c(c2)OCO3)nc1C
    12	-15	-31	3	1.7	3573	14
> CCOc1cc(C=NNC(=O)C(C)Sc2ccccc2)ccc1O (stereo unspecified)
    3	x	x	1	0.1	x	13
> O=C(CSc1ccc2c(c1)OCCO2)N1CCN(c2ccccc2)CC1
    -5	x	-6	2	-0.4	u	8
> Cc1cccc(CNC(=O)CCCn2nc(C)c3c(C)n(-c4ccccc4)nc3c2=O)c1
    -5	6	-14	-4	0.3	5148	1
> COc1cc(OC)cc(C(=O)Nc2ccc(N3CCN(C(=O)c4cccs4)CC3)cc2)c1
    -4	29	-15	-1	1.4	5232	5
> O=C(CCNC(=O)c1ccc(Cl)cc1)NCc1ccco1
    6	x	-13	6	0.2	3811	4
> COc1ccccc1C(=O)Nc1ccc2c(c1)C(=O)NC2=O
    10	8	-11	17	2.0	6026	3
> CCOc1ncccc1C(=O)Nc1cccc(Cl)c1Cl
    x	-6	-18	x	x	2541	x
> CCOC(=O)N1CCN(C(=O)c2cn(-c3ccc(C)c(C)c3)c(=O)c3ccccc23)CC1
    x	x	-16	6	-2.7	4840	x

A run of entries of the results above:
Values run as follows: Mtb hypoxia inh	BJeLR lethal	PrP UTR inh	Sa ugtP lethal	RN4220 kill	Bead autofluor	Mtb hypoxia inh growth
> Cc1cccc(CNC(=O)CCCn2nc(C)c3c(C)n(-c4ccccc4)nc3c2=O)c1
    -5	6	-14	-4	0.3	5148	1
> COc1cc(OC)cc(C(=O)Nc2ccc(N3CCN(C(=O)c4cccs4)CC3)cc2)c1
    -4	29	-15	-1	1.4	5232	5
> O=C(CCNC(=O)c1ccc(Cl)cc1)NCc1ccco1
    6	x	-13	6	0.2	3811	4

Screening results deposited in PubChem by several laboratories.
